# From PubChem
# D2 ag – human D2 receptor agonism in beta-arrestin assay; P14416; DiscoveRx PathHunter D2 beta-arrestin, luminescence, 90 min; 100% = 57 uM dopamine signal; activation, % (concentration not given with the values); 360,000 compounds, 0.084% hits; in the data active = activation above about 40%; inconclusive = about 15% to 40%; inactive = below about 15%; further: the text of the record calls up to 30% inactive
#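 DiscoveRx PathHunter D2 beta-arrestin cells (2,100/well) attached overnight, then compound-stimulated 90 min at 37 C in HBSS/10 mM HEPES/0.1% Tween-20 buffer; beta-galactosidase complementation read by luminescence after 1 h at ambient temperature. Dopamine 57 uM final (EC100) as control.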
# TRPML1 blocker – inhibitors of human TRPML1 channel; TRPML1-inducible cells, Ca2+ dye fluorescence, FDSS; hits give low values; inhibition of EC80 agonist-evoked calcium signal; Q9GZU1; 390,000 compounds, 0.02% hits; activity change, negative = inhibition, % (no concentration beside the values); in the data active means activity change below about -50%; inconclusive means about -30% to -50%; inactive means above about -30%;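 further: stimulus is agonist 54-4 at its EC80 concentration; on the % scale 0 is the no-effect control and ±100 the full control effect; compound concentration not given in the record; the text of the record puts the active cut at -80%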
#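 Tet-induced TRPML1-DL cells loaded with Ca8 no-wash calcium dye were read kinetically on FDSS. Compound addition was followed by EC80 agonist 54-4 (4 uM final); inhibition was read over 110 s.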
# D2 PAM – positive allosteric modulators of human D2 dopamine receptor; P14416; DiscoveRx D2 beta-arrestin cells, luminescence, 90 min; 100% = 57 uM dopamine signal; potentiation, % (no concentration beside the values); 360,000 compounds, 0.23% hits; active = potentiation of 50% or more; inconclusive = 30% to 50%; inactive = 30% or less;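 further: compound concentration not given in the record; tested on top of an EC20 dose of dopamine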
#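 PathHunter beta-arrestin assay in DiscoveRx D2 cells. Compounds were added with an EC20 of dopamine (50 nM final) for 90 min at 37 deg C. Luminescence was read 1 h after detection reagent, with 57 uM dopamine as the EC100 control.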
# TRPML1 agonist – human mucolipin-1 channel agonism | AID 624414 | Q9GZU1 | 410,000 compounds, 0.12% hits | activation, % (test concentration not listed) | TRPML1-expressing cells, Ca2+ dye fluorescence, FDSS; host cell line not named in the record; reference of the full effect not given here; in the data active = activation above about 50%; inconclusive = about 30% to 50%; inactive = below about 30%; further: 0% is about no effect; the text of the record puts the active cut at 80%
#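 Tet-induced TRPML1-DL cells, 1,500 per well, cultured overnight, were loaded with a no-wash Ca2+ dye for 45–90 min. Calcium fluorescence was recorded on the FDSS for 110 s after compound addition, before the EC80 agonist (4 uM 54-4) was added.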
# PINK1 expr mod – changes PINK1 expression | Potency, µM (highest dose often 76.6 µM), for the others: at the highest dose activation (PINK1 increase), most hits filed as activators | 410,000 compounds, 0.2% hits | PINK1 immunofluorescence, high-content cytometry, 24 h | AID 624263; active = well fitted activation curve with a large enough effect; inconclusive = small, poorly fitted or top-dose-only effect; inactive = flat fitted curve, though single readings scatter; cell line not stated here;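 further: potency means the concentration at half of the fitted maximal effect; % of control where 0% means no effect; nearly all actives have a fitted effect of over 65% in size; a mitochondrial uncoupler was the plate control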
#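 Cells are seeded, rested 12 hours, then given compound at five concentrations or DMSO for 24 hours. After fixation, blocking and antibody staining, PINK1 amount and mitochondrial localization are scored; CCCP serves as control.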
# Six1-Eya2 inh – inhibitors of human Six1/Eya2 interaction; Q15475+O00167; AlphaScreen GST-Six1/His-Eya2 binding, biochemical; hits give low values; control for the full effect not named in the record; activity change, % (test concentration not listed); 360,000 compounds, 0.56% hits; in the data active = activity change below about -65%; inconclusive = about -30% to -65%; inactive = above about -30%; further: on the % scale 0 is the no-effect control and ±100 the full control effect
# Target sequence (O00167 whole entry, looked up): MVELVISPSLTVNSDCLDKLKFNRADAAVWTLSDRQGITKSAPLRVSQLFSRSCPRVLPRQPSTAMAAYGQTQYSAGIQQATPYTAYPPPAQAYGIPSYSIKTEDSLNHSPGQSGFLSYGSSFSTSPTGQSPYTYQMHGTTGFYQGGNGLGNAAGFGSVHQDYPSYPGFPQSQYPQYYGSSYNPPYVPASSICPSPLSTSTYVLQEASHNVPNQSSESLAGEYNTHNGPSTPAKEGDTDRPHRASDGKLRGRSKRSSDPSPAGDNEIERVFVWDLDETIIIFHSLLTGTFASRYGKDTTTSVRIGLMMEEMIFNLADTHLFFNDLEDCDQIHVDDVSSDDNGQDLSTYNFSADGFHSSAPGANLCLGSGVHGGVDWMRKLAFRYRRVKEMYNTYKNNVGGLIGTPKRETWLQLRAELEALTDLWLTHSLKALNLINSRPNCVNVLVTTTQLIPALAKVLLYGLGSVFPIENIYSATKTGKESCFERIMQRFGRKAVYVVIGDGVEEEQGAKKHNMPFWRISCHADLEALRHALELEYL
# Target sequence (Q15475 whole entry, looked up): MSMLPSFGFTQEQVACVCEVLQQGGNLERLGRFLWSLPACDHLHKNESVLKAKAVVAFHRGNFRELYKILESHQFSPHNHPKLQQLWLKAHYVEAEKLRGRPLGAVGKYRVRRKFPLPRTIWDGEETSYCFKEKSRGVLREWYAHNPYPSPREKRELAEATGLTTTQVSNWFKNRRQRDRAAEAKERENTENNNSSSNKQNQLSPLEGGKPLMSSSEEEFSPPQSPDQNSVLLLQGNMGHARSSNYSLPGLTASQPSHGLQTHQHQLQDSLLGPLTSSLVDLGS
#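 GST-Six1 + His-Eya2 (5X stock: 250/500 nM); Tris pH 8.0, 300 mM NaCl, 0.05% BSA, 0.02% Tween 20; GSH donor/Ni acceptor beads; 1 h 37 °C dark; AlphaScreen readout.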
# * = called active by the depositor; ? = inconclusive; . = no result given; [ ] = another dose, or the depositor's remark. Outcome played no part in choosing rows. About 1% of those tested had a hit in this group.
Molecule	D2 ag	TRPML1 blocker	D2 PAM	TRPML1 agonist	PINK1 expr mod	Six1-Eya2 inh
CCCCC1(C)NC(=O)N(CC(=O)Nc2ccc(Cl)cc2C)C1=O (stereo unspecified)	0.8	1	-2	-0.7	2.4%	5
CCC1Oc2ccc(C)cc2N(CC(=O)NCCCN2CCOCC2)C1=O (stereo unspecified)	-5.9	18	-13	-1.1	0.5%	-18
C[C@H]1CN([C@@H](C)CO)C(=O)c2cc(C#Cc3ccccn3)cnc2O[C@@H]1CN(C)Cc1ccccc1	-6.8	-18	-6	-0.4	1.2%	12
CCOC(=O)C1=CCC(c2ccc(CC)cc2)N(S(=O)(=O)c2ccc(C)cc2)C1 (stereo unspecified)	-3.0	.	-3	0.4	3.1%	10
OC(CN1CCN(C(c2ccccc2)c2ccccc2)CC1)c1ccccc1 (stereo unspecified)	-1.2	.	-20	.	?	5
Clc1ccc(C(c2nnnn2C2CCCC2)N2CCN(Cc3ccncc3)CC2)cc1 (stereo unspecified)	-2.0	1	-9	-0.6	-1.2%	6
CN1CCN(C2CN(Cc3cn(Cc4cccc(Cl)c4)nn3)S(=O)(=O)C2)CC1 (stereo unspecified)	.	.	.	-0.4	0.3%	9
CCCS(=O)(=O)NC(=O)C1(C)CCN(C(=O)c2cc(C)oc2C)C1 (stereo unspecified)	-6.0	.	-3	-0.1	-0.3%	0
C[C@@H]1CCC[C@H](C)N1NC(=O)c1ccc(Cl)c(S(N)(=O)=O)c1	-4.2	39	-10	-0.1	0.1%	5
COc1ccc2sc(N(CCCN(C)C)C(=O)c3ccc(S(=O)(=O)N4CCCC4)cc3)nc2c1	-5.5	11	-13	1.0	-1.5%	5
CN(C)S(=O)(=O)c1cccc(NC(=S)N/N=C/C2CC=CCC2)c1 (stereo unspecified)	-18	3	-5	0.5	2.2%	1
O=C(Nc1ccccc1)c1ccc(-c2ccccc2Cl)o1	5.6	-2	-15	-0.3	-0.2%	7
COC(CNC(=O)c1ccc2c(c1)ncn2-c1cccc(C)c1)OC	-1.7	11	-3	0.7	2.3%	-2
O=C(COC(=O)Cc1ccc(F)cc1)NCCc1ccccc1	4.5	-7	-3	0.5	-0.6%	21
CCSc1cc(N2CCOCC2)nc(-c2ccc(Cl)cc2)n1	-4.2	53	-19	0.7	?	-1
CCOC(=O)c1c(/N=C/C2=C(O)CC(C)(C)CC2=O)sc2c1CCCC2	-1.4	-8	-8	-0.3	-0.9%	10
CC(C)(C)c1ccc(C(=O)Nc2ccc(NC(=O)c3ccco3)cc2)cc1	-2.3	2	11	1.5	.	1
CCCCN(C)C(=O)c1sc(=O)n(CC(=O)c2ccccc2OC)c1C	1.2	.	-5	-1.0	0.0%	-1
O=C(/C=C/c1ccc(O)c([N+](=O)[O-])c1)c1ccc2ccccc2c1	-6.5	20	-12	0.2	-3.1%	-3
CCOC(=O)C1=C(c2cccc(F)c2)NC(=S)NC1C (stereo unspecified)	-1.1	32	-15	1.4	-1.1%	-1
COC(=O)c1c(NC(=O)c2ccc(OC(C)C)cc2)sc2c1CC(C)(C)NC2(C)C	-0.3	26	-2	-0.5	11%	-4
Cc1ccc(S(=O)(=O)N2CCCCC2)cc1C(=O)NCCCN1CCOCC1	-0.1	1	-17	0.1	-1.0%	1
Cc1ccc(-n2c(SCC(=O)NCc3ccccc3)nc3n[nH]c(C)c3c2=N)cc1Cl	.	39	.	2.3	4.0%	.
O=C(NC1CCCC1)C1CCN(C(=O)c2cc(Cl)ccc2Cl)CC1	1.3	-19	-10	-0.2	-0.4%	3
COc1ccc2c(CNCCc3ccco3)c(C(=O)O)n(Cc3ccccc3)c2c1	.	-3	.	-0.2	0.0%	.
O=C(NCC1COc2ccccc2O1)c1cccc(S(=O)(=O)N2CCN(c3ccccc3)CC2)c1 (stereo unspecified)	2.5	-4	-39	0.0	2.6%	-11
O=C(CCc1nnc2ccc(NCc3ccco3)nn12)N1CCN(c2ccccc2)CC1	-3.0	-14	-8	-0.5	-1.2%	-6
CCc1ccccc1NC(=O)CSc1ncc2c(n1)-c1ccccc1N(C)S2(=O)=O	.	-4	.	1.4	9.9%	.
Cc1ccc(C2=NN(C(=O)CSc3nc(N)cc(N)n3)C(c3ccco3)C2)cc1 (stereo unspecified)	6.1	-2	0	-0.5	1.0%	-6
CCN(Cc1ccc(OC)c(F)c1)C(=O)c1oc2ccccc2c1COC	1.1	36	-6	2.6	0.3%	4

# New compounds follow.
Molecule	D2 ag	TRPML1 blocker	D2 PAM	TRPML1 agonist	PINK1 expr mod	Six1-Eya2 inh
CC(=O)NC(c1ccccc1)c1nc(-c2cccc(F)c2)cs1 (stereo unspecified)	-2.6	.	-2	-0.3	1.3%	6
CCOC(=O)c1ccc2nc(NC(=O)c3cccs3)sc2c1	-3.9	-6	-15	-0.8	-1.4%	20
Cn1c(-c2c(N)n(-c3ccccc3)c3nc4ccccc4nc23)nc2ccccc21	-2.3	-21	-14	24	6.4%	26
NS(=O)(=O)c1ccc(NC(=O)CN2CCc3ccccc32)cc1	6.5	13	1	1.0	-2.2%	25
CCc1cccc(CC)c1NC(=S)Nc1cccc(Cl)c1Cl	-1.8	4	-10	2.3	1.1%	6
Cc1cccc(C)c1NC(=O)CN1C(=O)S/C(=C\c2cccn2C)C1=O	0.9	6	3	0.3	14%[38.3 µM]	-2
Cc1ccc(NC(=O)Cn2c(=O)oc3cc(S(=O)(=O)N4CCC(C)CC4)ccc32)cc1C	-6.2	5	-2	-0.1	5.1%	-7
CCN(CC)S(=O)(=O)c1ccc(C(=O)NCc2n[nH]c(=S)n2Cc2ccccc2)cc1	0.7	-4	-8	-0.2	-1.9%[38.3 µM]	19
COc1ccc(S(=O)(=O)N(C)C)cc1NC(=O)COC(=O)C1CC1	-5.0	-15	-6	-0.6	0.7%	3
OCc1nc(CO)n(Cc2ccccc2)n1	-1.4	4	-3	0.3	-1.4%[38.3 µM]	1
Cc1ccnc(NC(=O)c2ccc3[nH]c(=O)c(=O)[nH]c3c2)c1	-4.4	1	2	3.2	0.4%	?
Cc1nn(C(C)C(=O)NCCc2ccco2)c(=O)c2nn(-c3ccccc3)c(C)c12 (stereo unspecified)	-4.8	10	-3	-0.8	-0.7%	1
Nc1sc2c(c1C(=O)NC1CCS(=O)(=O)C1)CCC2 (stereo unspecified)	0.4	-7	-3	-0.5	2.8%	-10
COc1cccc(NC(=O)CSc2nccn2Cc2ccc3c(c2)OCO3)c1	.	-13	.	4.1	0.9%	.
COc1ccc(C(=O)Nc2cc(=O)n(C)c(=O)n2C)cc1OC	-4.3	-1	-6	0.7	0.9%	3
C/C(=N\NC(N)=S)C1(C)CCCCC1	1.6	3	-12	-0.2	-1.8%	3
CC(C)N(C(C)C)S(=O)(=O)c1ccc(NN)nc1	-4.2	-7	-6	-0.6	1.1%	-4
C[C@@H]1CNC(=O)c2c(C(=O)NCc3ccc(CNC(=O)OC(C)(C)C)cc3)ncn21	-2.1	7	6	-0.6	-0.3%	-1
CN(CC(=O)Nc1ccccc1Cl)C(=O)COC(=O)C1=COCCO1	-4.3	4	-29	-0.4	6.8%	-1
CC(=O)N1CCN(Cc2nc3cc([N+](=O)[O-])ccc3n2C)CC1	0.4	5	-6	2.7	-1.1%	6
O=C(CN1CCN(CC(=O)Nc2cccc(F)c2)CC1)NCC1(N2CCOCC2)CCCCC1	-1.4	1	-2	1.4	0.0%	-1
COC(=O)/C=C/C(=O)Nc1cccnc1	-3.3	18	-14	0.0	-1.7%	-4
COCC(C)N1CCC(Oc2ccc(C(=O)NCc3ccccn3)cc2)CC1 (stereo unspecified)	1.4	-20	16	0.8	-1.6%	2
O=C(Cn1c(=O)n(-c2ccc(Cl)cc2)c(=O)c2c3c(sc21)CCC3)c1ccccc1	.	31	.	0.5	6.6%	.
NC(=O)c1ccc[n+](CCC[n+]2cccc(C(N)=O)c2)c1	2.8	-9	-5	-0.2	-1.7%	3
O=C(NCc1ccc(Cl)cc1)N1CCc2ccccc2C1	3.3	2	2	-0.1	7.9%	4
Cc1ccc(/C=N/NC(=O)CN2CCN(Cc3ccccc3)CC2)s1	-0.1	-10	-10	1.0	-0.9%	2
CC(C(=O)NCc1ccccc1Cl)n1ccc2cc(S(=O)(=O)N3CCCCC3)ccc21 (stereo unspecified)	.	6	.	-0.2	1.4%	.
CCC(Sc1ncc(S(=O)(=O)c2ccc(C)cc2)c(=O)[nH]1)C(=O)Nc1cc(C)ccc1C (stereo unspecified)	.	2	.	1.1	-0.9%	.
O=C(CSc1nc2ccccc2o1)N1N=C(c2cccs2)CC1c1ccc(F)cc1 (stereo unspecified)	-3.1	11	13	0.4	-1.5%	-3

# 4 structures out of the list, sorted by SMILES length, descending.
Molecule	D2 ag	TRPML1 blocker	D2 PAM	TRPML1 agonist	PINK1 expr mod	Six1-Eya2 inh
Cc1ccc(NC(=O)Cn2c(=O)oc3cc(S(=O)(=O)N4CCC(C)CC4)ccc32)cc1C	-6.2	5	-2	-0.1	5.1%	-7
Cc1cccc(C)c1NC(=O)CN1C(=O)S/C(=C\c2cccn2C)C1=O	0.9	6	3	0.3	14%[38.3 µM]	-2
NS(=O)(=O)c1ccc(NC(=O)CN2CCc3ccccc32)cc1	6.5	13	1	1.0	-2.2%	25
CCc1cccc(CC)c1NC(=S)Nc1cccc(Cl)c1Cl	-1.8	4	-10	2.3	1.1%	6

# New compounds follow
Molecule	D2 ag	TRPML1 blocker	D2 PAM	TRPML1 agonist	PINK1 expr mod	Six1-Eya2 inh
CC1=C(C#N)C(c2ccc(O)cc2)C(C#N)=C(C)N1	0.2	42	-8	0.3	-0.1%	2
COc1ccccc1NC(=O)c1ccc(C(=O)Nc2ccccc2OC)nc1	0.9	3	0	-0.8	7.7%	-2
CC(=O)Nc1ccc(S(=O)(=O)N2CCSC2c2ccc(C)cc2)cc1 (stereo unspecified)	-2.9	3	-13	-0.7	-0.4%	-1
CCOC(=O)c1cccc(NC(=O)CCc2nnc3ccc(N4CCOCC4)nn23)c1	4.0	11	2	-0.6	2.2%	1
COCCOC(=O)c1c(C)oc2ccc(OC(=O)COc3c(F)c(F)c(F)c(F)c3F)cc12	3.8	-13	-3	0.1	-1.4%	5
O=c1[nH]c2ccc(NCc3ccc(-c4cccc(Cl)c4)o3)cc2[nH]1	.	16	.	-0.3	3.2%	.
COc1ccc(C2=CC(=O)C[C@H](c3ccc(OC)c(OC)c3)C2)cc1	-3.9	3	-5	-0.8	-0.4%	22
COc1ccc(CN(C(=S)Nc2ccccc2)C2CC(=O)N(c3ccccc3)C2=O)cc1 (stereo unspecified)	1.3	0	-10	-0.2	?	-6
COc1ccc(NC(=O)c2c(NC(=O)CCC(=O)O)sc3c2CCCCC3)cc1	-4.3	8	-4	-0.3	3.4%	4
Cc1ccc(S(=O)(=O)N(CCc2ccccc2)CC(=O)Nc2ccc(Br)cc2)cc1	.	20	.	3.0	6.3%	.
